BJeLR lethal: kills HRASV12-expressing BJeLR cells. BJeLR (HRASV12) viability, CellTiter-Glo ATP luminescence, 48 h; reference of the scale not given here. inhibition, % (concentration not given with the values). 300,000 compounds, 0.17% hits. AID 1554;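 active means replicate mean above 50%; inconclusive means above 50% but judged a plate artefact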;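 further: 50 nL library stock added to about 25 µL; numbers are from one replicate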
ugtP null kill: growth inhibition of S. aureus ugtP deletion strain | AID 1259309 | 330,000 compounds, 0.54% hits | growth inhibition, % (test concentration not listed) | S. aureus RN4220 ugtP deletion, OD600 growth, 16 h; some inactives read as strong as hits;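 active means z-score under -3 and OD600 up to 0.15 on both plates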;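 further: plate controls were untreated wells for no effect and antibiotic for full effect; wells of about 80 µL received 100 nL stock; the first replicate is given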
Bead autofluor: flagged as autofluorescent in microsphere protease counterscreen; compound autofluorescence counterscreen, microsphere flow cytometry; stronger effect = higher value; fluorescence intensity (no concentration beside the values); 360,000 compounds, 3.1% hits;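 active means at least 3 SD above the mean of all compounds, about 16000 in these data; inconclusive means too few beads counted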;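 further: 100 nL of 1 mM stock went into each well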
PrP 5UTR inh: suppresses PrP 5' UTR mRNA reporter expression. cell-based PrP 5' UTR mRNA reporter, plate reader. inhibition, % (test concentration not listed). 340,000 compounds, 0.35% hits. AID 488862;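 active means every replicate at 50% or more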;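 further: 0 = median of the neutral control wells; tested in H4 reporter cells; numbers are from one replicate; inactives centre near -14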
Mtb hypoxia inh: Mtb hypoxia fluorescent reporter inhibition; M. tuberculosis hypoxia-regulated fluorescent reporter, fluorescence; fluorescence inhibition, % (test concentration not listed); 300,000 compounds, 0.1% hits;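 active means 35 to 45% if threefold the growth effect, above 45% if 1.5-fold the growth effect; inactive means the rest, general growth blockers included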;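 further: wells of about 50 µL received 100 nL stock; 0% = vehicle wells and 100% = reference inhibitor wells; whole bacteria with a GFP reporter of the hypoxia response; strong numbers were not always called active; many hits fall short of the cut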
Sa RN4220 lethal: kills Staphylococcus aureus RN4220. S. aureus RN4220 growth, OD600, 16 h. inhibition, % (test concentration not listed). 330,000 compounds, 0.33% hits. AID 1259311;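 active means z-score of -3 or lower and OD600 up to 0.18 on both plates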;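 further: plate controls were untreated cells for no effect and reference antibiotic for full effect; stock transfer was 100 nL into about 80 µL; one replicate is shown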
Mtb hypoxia inh growth: recorded beside Mtb hypoxia inh, whose call it bears; growth inhibition, %; measured here: M. tuberculosis growth (absorbance);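 0% = vehicle and 100% = reference antibiotic; read after six days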
Active calls of the source: *; ? = inconclusive; / = not tested or not shown. No enrichment for hits, and some 4% of all compounds hit somewhere here.

SMILES | BJeLR lethal | ugtP null kill | Bead autofluor | PrP 5UTR inh | Mtb hypoxia inh | Mtb hypoxia inh growth | Sa RN4220 lethal
COC(=O)C1=C(C)N(C)C(=O)NC1c1c(O)ccc2ccccc12 (stereo unspecified) | -5 | 7 | 3181 | -24 | 5 | 2 | 0.1
Clc1cccc(Cl)c1CN1CCN(c2ncccn2)CC1 | 4 | 12 | 4443 | 5 | 9 | 20 | 0.2
CC1CCCCN1C(=S)NC(=O)c1ccccc1 (stereo unspecified) | / | 1 | ? | -56 | 7 | 1 | 3.8
COCC(=O)Nc1ccc(F)cc1 | 3 | 3 | 4386 | -19 | -2 | 1 | 7.2
CSc1nc2ccc(Nc3nc(N4CCOCC4)nc(N4CCOCC4)n3)cc2s1 | / | 3 | 23477* | -29 | 6 | 15 | -5.6
COc1cc(NC(=O)c2ccccc2[N+](=O)[O-])ccc1NC(=O)c1cc2ccccc2o1 | 0 | -19 | 5968 | -17 | -9 | -7 | -4.7
CC1=CC(c2ccc(Cl)cc2)n2ncnc2N1 (stereo unspecified) | 12 | -12 | 3048 | -37 | 4 | 5 | 3.4
CN1CCN(C(=O)c2cc([N+](=O)[O-])cc([N+](=O)[O-])c2)CC1 | -6 | 19 | 3260 | 5 | -7 | -2 | 1.7
Cc1nn(-c2ccccc2)c(C)c1C=NNC(=O)c1cc(-c2ccc(Cl)s2)[nH]n1 | / | -29 | / | / | -12 | -17 | 5.2
O=C(CC(=O)c1ccccc1)Nc1cccnc1Cl | 5 | / | 2082 | 3 | / | / | /
COC(=O)c1c(NC(=O)COc2ncnc3ccccc23)sc(C)c1C | -9 | -2 | 8759 | -12 | 0 | 7 | 2.0
CCS(=O)(=O)N1CCN(c2ccc([N+](=O)[O-])c(NC(C)c3ccccc3)c2)CC1 (stereo unspecified) | -1 | 6 | 4473 | 3 | / | / | -3.7
CCCc1ccc(OCc2ccc(C(=O)O)o2)c(OC)c1 | 0 | 7 | 2799 | -36 | 12 | 15 | 7.7
CCCCN(CC)CCNC(=O)c1cc2c(=O)[nH]c3ccc(C)cc3c2s1 | 2 | 4 | 3843 | 0 | 7 | 8 | -2.3
CC(=O)c1cccc(NC(=O)C2CCCN2S(=O)(=O)c2cccc3nsnc23)c1 (stereo unspecified) | -1 | 3 | 6032 | -32 | 3 | -6 | -0.5
COCCn1nnnc1CN(Cc1ccco1)Cc1cc2cc3c(cc2[nH]c1=O)OCO3 | 14 | -3 | 23147* | -11 | -7 | 1 | -3.0
Nc1c(C(=O)NC2CC2)c2nc3ccccc3nc2n1-c1ccc2c(c1)OCO2 | 0 | -11 | 2736 | -6 | / | / | -9.0
O=C(COC(=O)c1ccc(O)cc1)Nc1ccc(S(=O)(=O)N2CCCC2)cc1 | / | 5 | 2662 | 3 | 24 | 1 | 4.4
Nc1nc(Nc2ccccc2F)nc(NC2CCCCC2)c1[N+](=O)[O-] | -12 | 40 | 3357 | -16 | 2 | -2 | -10
O=C(N/N=C/c1ccco1)C12CC3CC(CC(C3)C1)C2 | 4 | / | 4424 | -38 | / | / | /
CC(=NNC(=O)c1nnn(-c2nonc2N)c1CN1CCOCC1)c1ccc(CC(C)C)cc1 | / | 3 | / | / | 8 | 1 | 1.2
CC[N+](CC)(CC)CCCOC(=O)C(O)(c1ccccc1)C1CCCCC1 (stereo unspecified) | -4 | 0 | 3695 | -15 | -4 | 9 | 3.4
Cc1ccc(-n2c(-c3ccccc3)c[n+]3c2CCc2ccccc2-3)c(C)c1 | / | 19 | 3222 | -39 | / | / | 7.0
Fc1cc(Br)ccc1COc1ccc(-c2nnco2)cc1 | -2 | -6 | 5407 | -46 | 17 | 4 | 3.6
O=C(Nc1ccc(S(=O)(=O)Nc2nccs2)cc1)c1cc(-c2ccncc2)nc2ccccc12 | -3 | 6 | 6889 | -4 | 15 | 10 | 1.2
Cc1ccc(NC(=O)c2cc(N3CCOCC3)nc3ccccc23)cc1 | 3 | 1 | 8156 | -6 | 15 | 4 | 1.3
O=C(NCCSc1ccccn1)c1ccc(Cl)cc1Cl | 3 | 5 | 3618 | -45 | 7 | 10 | 3.0
CCC(=O)Nc1c(C#N)c2nc3ccccc3nc2n1C1CCCCC1 | -4 | -3 | 3717 | 9 | -4 | 4 | 0.7
O=C(NC(=S)NCCc1ccccn1)c1ccccc1 | -4 | 1 | 2001 | -26 | 0 | 1 | 4.0
COc1ccc(-c2ccc(C#N)c(SCC(=O)NCCc3ccccc3)n2)cc1OC | / | 7 | 3241 | -16 | 3 | 2 | 1.8
CCn1ccnc1C(O)c1cccc(OC)c1 (stereo unspecified) | -9 | 11 | 3040 | -23 | 8 | 0 | 0.7
O=C(NCc1cccnc1)c1cc([N+](=O)[O-])ccc1N1CCOCC1 | 5 | 11 | 5206 | -28 | -6 | -1 | 2.6
O=C(Nc1ccccc1OCc1ccccc1)c1ccccc1Br | 5 | 7 | 3785 | -16 | 20 | 9 | -2.5
Fc1ccccc1Cc1noc(CN2CCC(OCc3cccnc3)CC2)n1 | 0 | 1 | 4438 | -30 | -2 | -6 | -0.9
CC(C)(C)NC(=O)c1cccc(NC(=O)c2ccc(NC(=O)c3ccco3)cc2)c1 | 3 | -13 | 6966 | -23 | -4 | -10 | -5.1
COc1ccc(C(=O)/C=C2/C(=O)Nc3ccccc32)c(OC)c1 | -5 | 38 | 4018 | -11 | 21 | 23 | 32
CCOC(=O)c1ccc(COC(=O)CCc2nc3ccccc3[nH]c2=O)o1 | -3 | 7 | 4137 | -24 | 7 | 5 | 5.0
O=C(COC(=O)C1=COCCO1)Nc1cc(Cl)c(Cl)cc1Cl | / | 1 | 4312 | -3 | 2 | -3 | 4.2
CCCN1CN=C(NS(=O)(=O)c2ccc(C)cc2)NC1 | -8 | 6 | 3058 | -12 | -1 | -3 | 6.7
CC(C)Cc1nnc(NC(=O)CSc2nc(O)c(Cc3ccccc3)c(=O)[nH]2)s1 | / | 2 | 4963 | -8 | -3 | 15 | 1.2
Cc1cc2c(cc1C)NC1(C(=O)Nc3ccccc31)C1=C(CC(C)(C)CC1=O)N2 (stereo unspecified) | -6 | -5 | 5134 | -55 | / | / | -1.3
COc1ccc(N2CCN(C(=O)CN3C(=O)C4CC=CCC4C3=O)CC2)cc1 (stereo unspecified) | -2 | 12 | 4793 | 3 | / | / | 1.1
COc1ccc(C(=O)NC(=S)N(C)C2CCCCC2)cc1 | / | 6 | 5732 | 1 | -5 | 9 | 0.5
Cc1nn(-c2ccc(F)cc2)c(C)c1/C=C/C(=O)N1CCNC(=O)C1 | 2 | 7 | 4383 | -8 | -7 | 7 | 5.3
Cc1ccccc1NC(=O)/C(C#N)=C/c1ccc[nH]1 | 7 | 5 | 5687 | -32 | 14 | 1 | -1.2
CCC(C)Nc1nc(Cl)nc(N(C#N)CN2C(=O)c3ccccc3S2(=O)=O)n1 (stereo unspecified) | 1 | / | 2558 | -3 | / | / | /
O=C(Nc1ccc2nc(-c3ccc(Br)o3)[nH]c2c1)c1ccco1 | 4 | -6 | 2267 | -11 | / | / | -4.4
CC(=O)N1CCc2cc(Br)cc(S(=O)(=O)CCC(=O)Nc3c(C)n(C)n(-c4ccccc4)c3=O)c21 | -3 | 4 | 4126 | -36 | 11 | 14 | 12
CCOC(=O)C(=NNc1ccc(Br)cc1)N1CC(C)OC(C)C1 (stereo unspecified) | / | 3 | / | / | -11 | 9 | 5.8
COc1cccc(NC(=O)N2CCC(C(=O)Nc3ccc(C)cc3C)CC2)c1 | -3 | 12 | ? | -1 | -1 | -4 | 6.2
CCC(OC(=O)c1ccco1)C(=O)NCc1ccc2c(c1)OCO2 (stereo unspecified) | -14 | 0 | 3555 | -9 | -11 | -11 | -0.6
CC(C)(C)Sc1ccc(C=NO)cc1[N+](=O)[O-] | / | 21 | / | / | 12 | 7 | 6.7
COc1ccc(C(=O)N2C(=S)NC(=O)/C2=C\c2ccc(C)cc2)cc1 | 5 | 100* | 2034 | -16 | 2 | 3 | -9.4
COc1ccc(-c2noc(N3CCCC(C(=O)Nc4ccc(F)cc4F)C3)n2)cc1 (stereo unspecified) | 4 | -5 | 5233 | -32 | -7 | 0 | -1.1
COc1cc(OC)cc(C(=O)Nn2cc(C(=O)Nc3c(F)cccc3F)c3ccccc3c2=O)c1 | 2 | 17 | 2065 | 1 | 9 | 0 | 3.4
O=C(/C=C/Nc1ccc(Br)cn1)c1cccc(OC(F)F)c1 | / | -3 | 5718 | -94 | 0 | 2 | 2.9
COc1cccc(N2CCN(C(=O)c3nc4nc(C)cc(C)n4n3)CC2)c1 | 8 | -1 | 2220 | -20 | 0 | -1 | 3.7
O=C(Nc1cccc2ccccc12)NC1CCCc2ccccc21 (stereo unspecified) | -3 | 2 | 3977 | 1 | / | / | -7.8
COCCn1c(=O)[nH]c2cc(C(=O)N3CCN(c4cc(C)ccc4C)CC3)ccc2c1=O | -5 | -3 | 5722 | -11 | -11 | 4 | -0.8
COc1ccc(CN2CCN(S(=O)(=O)c3ccccc3)CC2)c(OC)c1OC | -4 | -1 | 3426 | -19 | -1 | -3 | 0.8

Full records, looked up by structure. Values in the order: BJeLR lethal, ugtP null kill, Bead autofluor, PrP 5UTR inh, Mtb hypoxia inh, Mtb hypoxia inh growth, Sa RN4220 lethal
Results for O=C(/C=C/Nc1ccc(Br)cn1)c1cccc(OC(F)F)c1 → /, -3, 5718, -94, 0, 2, 2.9
Results for CCS(=O)(=O)N1CCN(c2ccc([N+](=O)[O-])c(NC(C)c3ccccc3)c2)CC1 (stereo unspecified) → -1, 6, 4473, 3, /, /, -3.7
Results for COCCn1c(=O)[nH]c2cc(C(=O)N3CCN(c4cc(C)ccc4C)CC3)ccc2c1=O → -5, -3, 5722, -11, -11, 4, -0.8
Results for COc1cc(NC(=O)c2ccccc2[N+](=O)[O-])ccc1NC(=O)c1cc2ccccc2o1 → 0, -19, 5968, -17, -9, -7, -4.7

The list goes on:
SMILES | BJeLR lethal | ugtP null kill | Bead autofluor | PrP 5UTR inh | Mtb hypoxia inh | Mtb hypoxia inh growth | Sa RN4220 lethal
CCN(C(=O)CSc1cc(C)c2cccc(C)c2n1)C1CCS(=O)(=O)C1 (stereo unspecified) | 1 | 6 | 4499 | -17 | 19 | -10 | 2.0
O=C(Nc1ccc(N2CCN(C(=O)c3ccccc3)CC2)cc1)c1ccc2c(c1)OCCO2 | 4 | 2 | 5845 | -31 | 1 | 8 | 1.7
O=S(=O)(Nc1ccc(Br)cc1)c1cccc(NS(=O)(=O)c2cccs2)c1 | / | 11 | 4052 | -35 | 7 | -4 | 5.9
CCc1n[nH]c(=S)n1/N=C/c1ccc(N(CC)CC)cc1 | 3 | / | 4529 | -9 | / | / | /
O=C(CN1CCN(c2ccc(F)cc2)CC1)Nc1ccccc1 | -4 | 2 | 4233 | -9 | 20 | 12 | 2.5
CCc1ccc(C(=O)C(C)OC(=O)c2cccc(S(=O)(=O)N3CCOCC3)c2)cc1 (stereo unspecified) | -1 | 2 | 6557 | -24 | 10 | -5 | 2.4
COc1ccc(C)cc1NC(=O)CNC(C)C(=O)Nc1ccc(C(C)=O)cc1 (stereo unspecified) | -4 | 4 | 3486 | -1 | 2 | 4 | 2.9
COC(=O)c1ccccc1N1C(=O)C2C(C1=O)[C@H]1C=C[C@@H]2C1 (stereo partly specified) | 1 | / | 3233 | -9 | / | / | /
CC1CN(S(=O)(=O)c2ccc(CN3C(=O)c4cccnc4C3=O)cc2)c2ccccc2O1 (stereo unspecified) | -5 | 2 | 4559 | -19 | 3 | -2 | 2.8
CCCCOc1cccc(C(=O)Nc2ccc(S(=O)(=O)Nc3cc(C)on3)cc2)c1 | 3 | 10 | 3872 | -28 | 3 | 7 | 2.2
CCOc1ccc(-c2c(C(=O)NN=Cc3cccc(Br)c3)nnn2-c2nonc2N)cc1 | / | -6 | / | / | -7 | -2 | -1.2
Clc1ccc(OCCn2cnc3ccccc32)c(Cl)c1 | 7 | -13 | 5717 | -51 | 8 | 2 | 4.7
COc1cc(C(=O)NCc2ccc(-c3nc4ccccc4s3)cc2)cc(OC)c1OC | -2 | / | 3193 | -50 | / | / | /
CCOc1ccc(N2CC(C(=O)NCc3nnnn3-c3ccc(C)c(C)c3)CC2=O)cc1 (stereo unspecified) | 9 | 0 | 6438 | 0 | 9 | 6 | 4.0

Assay outcomes deposited in PubChem BioAssay by several laboratories.
